RanGTP-Impb inh – inhibitors of RanGTP-importin-beta interaction, primary screen, biochemical, FRET, CFP-Ran, YFP-importin-beta, homogeneous; cell-free CFP-Ran/YFP-importin-beta FRET ratio; inhibition, % (no concentration beside the values); 300,000 compounds, 1.1% hits; AID 2216;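 active means most replicates above 15%; inconclusive means exactly half above 15%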;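 further: 0% = DMSO wells and 100% = Ran loaded with GDP instead of GTP; wells of about 40 µL received 100 nL stock; the first replicate is given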
Bfl-1 A1 inh – inhibitors of the anti-apoptotic protein A1, read as caspase activation. MEF A1-2A-BIM cells, Caspase-Glo 3/7 luminescence, 3 h; percent of clofoctol response, vehicle zero. caspase activation, % (concentration not given with the values). 330,000 compounds, 0.066% hits. AID 2462;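 active means over half of replicate activation scores above 10%, or exactly half above 10 with the replicate mean above 10; inconclusive means replicate mean below 10 yet half the replicates above 10; inactive means over half of replicates below 10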;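 further: wells of about 30 µL received 50 nL stock; many hits fall short of the cut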
Calb FLC – C. albicans growth modulation with fluconazole; C. albicans CaCi-2 (fluconazole-resistant clinical isolate) + fluconazole, Alamar Blue growth, 48 h; growth inhibition, % (no concentration beside the values); 300,000 compounds, 0.57% hits; AID 1979;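 active means most replicates above 75%; inconclusive means exactly half above 75%; inactive means most below 75%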;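 further: all wells also contain fluconazole at 8 µg/ml as a sub-toxic cotreatment; 0% = median of DMSO wells and 100% = median of geldanamycin control wells; wells of about 8 µL received 7.5 nL stock; the first replicate is given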
UCH37 inh – blocks the human deubiquitinase UCH37. Q9Y5K5. purified proteasome/UCH37, Ub-AMC cleavage fluorescence. inhibition, % (test concentration not listed). 330,000 compounds, 0.33% hits. AID 588478;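 active means mean of two replicates above 20%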;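 further: 0% = compound-free wells with enzyme and 100% = wells lacking proteasome; stock transfer was 100 nL into about 20 µL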
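Material: Human UCH37 enzyme supplied as purified proteasome complex | Schedule: 30 min preincubation with enzyme, 25 min cleavage at room temperature | Detection: AMC fluorescence 355/460 nm | Measure: % inhibition of Ub-AMC cleavage fluorescence | Controls: Wells without proteasome as full block, compound-free enzyme plus substrate as uninhibited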
Beta apoptosis – blocks beta cell apoptosis; INS-1E cytokine-induced death, ATP luminescence, 48 h; percent of positive-control rescue, neutral wells zero; 300,000 compounds, 0.8% hits; protection from apoptosis, % (test concentration not listed);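 active means all replicates at 75% or more, or half of them and the mean; inconclusive means half reach 75% but not the mean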;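 further: 0% = cytokine-treated negative control wells and 100% = positive control rescue; higher means more ATP so stronger rescue from cytokine killing; wells of about 40 µL received 100 nL stock; the first replicate is given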
B2AR ag – activates human beta-2 adrenergic receptor causing internalization; P07550; Am2.2-beta2AR cells, FAP receptor internalization, flow cytometry; reference of the scale not given here; response, % (no concentration beside the values); 340,000 compounds, 0.43% hits;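 active means response above a set limit, near 3 SD of response in nonfluorescent compounds, cut at about 42% in these data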;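 further: stock transfer was 100 nL into about 11 µL; a reference agonist was the positive control; negative values mostly stem from fluorescent compounds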
T cruzi inh – blocks replication of Trypanosoma cruzi | T. cruzi beta-gal in NIH3T3, luminescence, 90 h | inhibition, % (concentration not given with the values) | 300,000 compounds, 1.4% hits | AID 1885;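 active means mean inhibition across valid replicates above about 55%, limit read from the data; inconclusive means mean below that limit but half or more replicates reach it; inactive means mean below it, under half of replicates reach it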;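 further: signal also drops with host cell toxicity which is not excluded here; 0% = plate median of DMSO wells and 100% = zero luminescence signal; higher percent means less beta-gal luminescence so fewer parasites; stock transfer was 50 nL into about 50 µL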
LANA-H2B inh – blocks KSHV LANA binding to histone H2A/H2B; cell-free LANA-H2A/H2B peptide, fluorescence polarization; inhibition, % (concentration not given with the values); 320,000 compounds, 0.6% hits; in the data active means inhibition mostly above about 10%, no sharp cut-off; inactive means mostly below about 6.7%;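 further: stock transfer was 7.5 nL into about 10 µL; 0% = median of vehicle wells and 100% = median of positive control wells; one replicate is shown; the record names a cut of 25% in any replicate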
Target sequence (Q9QR71 whole entry, looked up): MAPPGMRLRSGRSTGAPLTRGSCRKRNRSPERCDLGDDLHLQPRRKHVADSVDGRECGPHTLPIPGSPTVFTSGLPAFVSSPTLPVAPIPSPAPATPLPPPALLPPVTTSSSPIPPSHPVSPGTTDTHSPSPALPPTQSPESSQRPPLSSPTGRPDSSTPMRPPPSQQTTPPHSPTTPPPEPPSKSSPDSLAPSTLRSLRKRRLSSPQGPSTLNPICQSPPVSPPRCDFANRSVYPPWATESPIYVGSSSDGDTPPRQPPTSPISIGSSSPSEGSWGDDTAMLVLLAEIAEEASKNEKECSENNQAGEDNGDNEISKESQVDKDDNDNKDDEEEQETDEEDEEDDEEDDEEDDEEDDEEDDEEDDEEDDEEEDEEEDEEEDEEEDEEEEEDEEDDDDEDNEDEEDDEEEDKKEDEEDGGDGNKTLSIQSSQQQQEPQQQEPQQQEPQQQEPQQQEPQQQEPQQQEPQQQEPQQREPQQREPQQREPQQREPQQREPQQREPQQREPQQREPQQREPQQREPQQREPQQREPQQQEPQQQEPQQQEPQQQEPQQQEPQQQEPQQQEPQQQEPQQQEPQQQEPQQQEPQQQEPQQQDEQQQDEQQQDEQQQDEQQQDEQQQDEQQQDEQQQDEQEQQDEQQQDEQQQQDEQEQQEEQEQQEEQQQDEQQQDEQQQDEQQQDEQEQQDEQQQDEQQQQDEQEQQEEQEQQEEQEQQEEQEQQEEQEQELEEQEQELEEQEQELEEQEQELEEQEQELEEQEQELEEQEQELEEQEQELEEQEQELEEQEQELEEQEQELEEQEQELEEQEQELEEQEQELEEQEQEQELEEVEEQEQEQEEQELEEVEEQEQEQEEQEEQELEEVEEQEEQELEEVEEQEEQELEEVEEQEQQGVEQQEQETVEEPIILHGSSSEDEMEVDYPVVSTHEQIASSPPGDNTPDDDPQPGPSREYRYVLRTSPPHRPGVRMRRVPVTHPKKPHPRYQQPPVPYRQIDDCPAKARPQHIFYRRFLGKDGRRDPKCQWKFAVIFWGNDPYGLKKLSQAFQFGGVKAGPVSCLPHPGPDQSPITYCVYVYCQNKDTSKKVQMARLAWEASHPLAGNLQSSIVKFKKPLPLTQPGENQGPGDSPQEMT
Active calls of the source: *; ? = inconclusive; nt = no result given.

1. CC1CCCN(Cc2nc3c(c(=O)n(C)c(=O)n3C)n2CC(=O)c2ccccc2)C1 (stereo not given)
2. CCOC(=O)N1CCC(NS(=O)(=O)c2cc(Br)cc3c2N(C(=O)CC)CC3)CC1
3. O=C(NNC(=O)c1ccccc1Br)c1ccc2nc[nH]c2c1
4. Cc1cccc(Nc2nc(N)c([N+](=O)[O-])c(NCc3ccccc3)n2)c1
5. Cc1cc(=O)[nH]c(N/N=C/c2ccc(Cl)cc2Cl)n1
6. CCCC(=O)Nc1cc(-c2nnc(OC)c3ccccc23)ccc1N1CCCCC1
7. CS(=O)(=O)N(CC(=O)NC1CCCC1)c1ccc2c(c1)OCCO2
8. O=C(CC1C(=O)NCCN1C(=O)Nc1ccccc1)Nc1ccc(F)cc1 (stereo not given)

entry no.,1,2,3,4,5,6,7,8
RanGTP-Impb inh,?,-1.0,3.3,0.3,0.0,-1.1,-2.5,0.3
Bfl-1 A1 inh,-0.4,1.0,-1.4,0.3,-4.1,0.1,0.0,0.4
Calb FLC,-5,5,2,3,-3,?,-15,-5
UCH37 inh,0.3,1.7,0.4,6.6,nt,nt,7.7,2.8
Beta apoptosis,-1,-1,2,nt,1,-7,0,-2
B2AR ag,-12,-4,8,-5,5,nt,8,2
T cruzi inh,1,-2,-8,10,-7,45,-8,-1
LANA-H2B inh,3.9,4.6,-6.6,-0.7,-1.9,0.7,-1.9,4.4

9. Cc1ccc(-n2ncc(Br)c(Br)c2=O)cc1
10. Cn1cc(CNC(=O)C23CC4CC(CC(C4)C2)C3)cn1
11. O=C(NNC(=O)c1ccc(-c2ccccc2)cc1)Nc1ccc(F)cc1F
12. COC(=O)c1ccc(S(=O)(=O)N2CCCN(Cc3ccc(F)cc3)CC2)n1C
13. COc1ccc2ccccc2c1C1CC(=O)N2CN(Cc3ccco3)CSC2=C1C#N (stereo not given)
14. COc1ccc(C2C(=O)N(C3CCCCCC3)CC(=O)N2Cc2ccccc2)cc1OC (stereo not given)
15. ON=C1CCN(c2ncc(C(F)(F)F)cc2Cl)CC1
16. O=P(OC1CCCCC1)(OC1CCCCC1)C(O)c1c(Cl)cccc1Cl (stereo not given)

entry no.,9,10,11,12,13,14,15,16
RanGTP-Impb inh,4.4,1.4,4.8,-0.8,5.4,-1.1,3.5,-4.4
Bfl-1 A1 inh,nt,-0.3,-0.2,0.0,-1.9,0.1,1.4,-0.2
Calb FLC,97*,-4,-23,-1,-16,-2,13,-5
UCH37 inh,4.3,1.2,4.1,0.5,5.7,2.7,1.3,2.0
Beta apoptosis,nt,1,-2,-3,-4,1,1,-7
B2AR ag,18,3,-3,-2,-3,-12,1,-1
T cruzi inh,75*,-3,1,17,11,9,-11,27
LANA-H2B inh,nt,-1.5,0.7,2.4,1.1,-1.8,-1.0,-2.6

17. CC(=O)Nc1ccc(S(=O)(=O)NCc2ccc3c(c2)cc(C)n3C)cc1
18. Cc1cc(=O)n(C)c(=O)n1CCCCCCOc1ccc([N+](=O)[O-])cc1
19. COc1cc2c(c(OC)c1OC)-c1c(cc3c(c1OC)OCO3)C[C@H](C)[C@@](C)(O)C2
20. COc1ccc2c(c1)c1nc3n(c(=O)c1n2CC(=O)Nc1cc(C)[nH]n1)CCS3
21. CCOc1ccccc1-c1nc(CN2CCCC2c2nccs2)c(C)o1 (stereo not given)
22. Cc1ccc(OCCNC(=O)Cc2ccc(F)cc2)cc1
23. O=C(NCCO)c1nc(C(=O)c2ccc(Cl)cc2)c2ccccc2n1
24. CC(=O)N1c2ccc(S(=O)(=O)N3CCCC(C(=O)NCc4ccc(Cl)cc4)C3)cc2CC1C (stereo not given)

entry no.,17,18,19,20,21,22,23,24
RanGTP-Impb inh,-2.6,-1.7,-1.2,3.9,?,-0.8,nt,-1.0
Bfl-1 A1 inh,0.0,-0.3,0.3,-0.4,-0.1,-0.2,-0.9,-0.2
Calb FLC,-4,3,nt,4,0,8,nt,-5
UCH37 inh,5.2,4.8,1.9,-131,-2.3,1.9,5.0,1.9
Beta apoptosis,5,41,-4,65,1,-3,-5,19
B2AR ag,26,nt,1,nt,3,10,-5,-9
T cruzi inh,5,-1,-4,-21,15,-6,nt,7
LANA-H2B inh,-6.5,-1.4,-1.5,5.1,3.1,5.1,-13,-4.9

Given with bars between the fields: part of the list above
cpd | smiles | RanGTP-Impb inh | Bfl-1 A1 inh | Calb FLC | UCH37 inh | Beta apoptosis | B2AR ag | T cruzi inh | LANA-H2B inh
22 | Cc1ccc(OCCNC(=O)Cc2ccc(F)cc2)cc1 | -0.8 | -0.2 | 8 | 1.9 | -3 | 10 | -6 | 5.1
19 | COc1cc2c(c(OC)c1OC)-c1c(cc3c(c1OC)OCO3)C[C@H](C)[C@@](C)(O)C2 | -1.2 | 0.3 | nt | 1.9 | -4 | 1 | -4 | -1.5

Remaining list, next part
25. CC1=Nn2c(nnc2-c2ccccn2)SC1
26. O=C(CCc1ccc(S(=O)(=O)N2CCOCC2)cc1)OCC(=O)c1ccccc1
27. CC1CN(c2ccc([N+](=O)[O-])cc2Cl)CCN1S(C)(=O)=O (stereo not given)
28. C=CCn1c(=O)c2c(nc3n2CCS3)n(C)c1=O
29. CSc1nnc(C)c(=O)n1COC(=O)c1ccccc1
30. CC(=O)NC(CC(=O)NNC(=O)c1cccs1)c1ccccc1 (stereo not given)
31. CCN(CC(=O)Nc1ccccc1C(F)(F)F)C(=O)CCS(=O)(=O)c1ccc(Cl)cc1
32. CCOc1ccccc1NC(=O)NCCc1c[nH]c2ccccc12

entry no.,25,26,27,28,29,30,31,32
RanGTP-Impb inh,-3.0,nt,0.7,-5.3,-0.5,-4.3,-2.1,3.2
Bfl-1 A1 inh,0.1,2.1,1.7,0.1,0.1,-1.5,-0.6,1.0
Calb FLC,-8,nt,-3,1,2,-4,-5,0
UCH37 inh,1.9,-2.3,8.0,1.3,6.4,4.7,-0.3,1.2
Beta apoptosis,nt,-1,-1,nt,-1,-4,-5,-2
B2AR ag,1,-1,-1,-3,1,-1,-3,2
T cruzi inh,-6,nt,-1,-9,-4,-14,-4,-2
LANA-H2B inh,-0.8,6.0,2.2,0.3,-3.5,1.2,-2.2,0.7

33. COc1ccc(S(=O)(=O)N(CC(=O)NCC2CCCO2)c2ccc(F)cc2)cc1OC (stereo not given)
34. CCCOc1cc(NCc2ccccc2)c2ncn(C(C)C)c2c1
35. COc1c(Br)cc(Br)cc1/C=N/n1c(C)nnc1C
36. O=C(Nc1cccc2cccnc12)c1cccc(Cl)c1
37. C=CCN(C(=O)CCC(=O)Nc1cc(C)on1)C(C(=O)NC1CCCC1)c1cccnc1 (stereo not given)
38. COc1ccc2nc(N3CCCC(C(=O)NCCc4ccc(OC)c(OC)c4)C3)sc2c1 (stereo not given)
39. CCOC(=O)Cc1csc(NC(=O)/C=C/c2ccc(Br)o2)n1
40. CC(=O)NCC1=C(NC(C)=O)C2CC1C(C)(C)C2C (stereo not given)

entry no.,33,34,35,36,37,38,39,40
RanGTP-Impb inh,2.6,nt,?,1.3,2.9,?,-3.7,-3.4
Bfl-1 A1 inh,-0.1,0.1,0.2,-1.0,-0.2,-0.5,-0.1,1.8
Calb FLC,11,nt,3,-30,nt,4,-2,-2
UCH37 inh,2.8,1.6,nt,2.7,1.8,3.4,3.7,nt
Beta apoptosis,-2,124*,13,0,0,2,6,-4
B2AR ag,-4,-11,2,6,3,10,9,nt
T cruzi inh,-9,nt,2,-33,-19,-3,-10,2
LANA-H2B inh,-8.7,0.6,-1.4,11,1.3,3.5,-0.4,0.7

41. Cc1cc(S(=O)(=O)Nc2cc(C)c(O)c(C)c2)c(C)s1
42. CCOc1cc(C(=O)NCCCNC(=O)c2cc(OCC)c(OCC)c(OCC)c2)cc(OCC)c1OCC
43. O=C(Cc1ccccc1)N/N=C/c1cccn1-c1ccc([N+](=O)[O-])cc1
44. COc1ccc(OC)c(S(=O)(=O)N2CCC(C(=O)NCCC3=CCCCC3)CC2)c1
45. COc1ccc(C2CC(c3cc(OC)ccc3OC)n3nnnc3N2)cc1 (stereo not given)
46. COC(=O)C1CCN(C(=O)c2ccc(NC(C)=O)cc2)CC1
47. Cc1cccc(-c2noc(CCCC(=O)NCC3CCCO3)n2)c1 (stereo not given)
48. CCCn1c(NCc2ccc3c(c2)OCO3)nc2ccccc21
49. CC(C)n1c(SCC(=O)Nc2nc3ccccc3s2)nc2c1c(=O)n(C)c(=O)n2C
50. O=C(CNc1ccc(C(F)(F)F)cc1)Nc1cccc(S(=O)(=O)N2CCCC2)c1

entry no.,41,42,43,44,45,46,47,48,49,50
RanGTP-Impb inh,-2.3,-0.4,-3.1,-2.9,3.2,-0.7,2.2,-0.3,-0.9,nt
Bfl-1 A1 inh,-0.2,0.0,1.7,2.4,-0.6,nt,-0.3,0.6,-0.3,-0.6
Calb FLC,6,9,-4,-10,41,1,-3,0,3,nt
UCH37 inh,2.7,4.2,nt,13,-1.9,0.6,3.0,4.1,6.0,0.2
Beta apoptosis,-2,2,6,3,0,-6,0,-5,-8,-2
B2AR ag,1,2,-25,-9,-2,-11,-1,-8,12,9
T cruzi inh,-1,13,-8,5,-13,-8,4,11,-14,nt
LANA-H2B inh,-7.0,2.5,-3.2,-2.4,5.4,5.6,-0.6,-1.3,3.7,0.0

Structural class, those above with fluorine
8. O=C(CC1C(=O)NCCN1C(=O)Nc1ccccc1)Nc1ccc(F)cc1 (stereo not given)
11. O=C(NNC(=O)c1ccc(-c2ccccc2)cc1)Nc1ccc(F)cc1F
12. COC(=O)c1ccc(S(=O)(=O)N2CCCN(Cc3ccc(F)cc3)CC2)n1C
15. ON=C1CCN(c2ncc(C(F)(F)F)cc2Cl)CC1
22. Cc1ccc(OCCNC(=O)Cc2ccc(F)cc2)cc1
31. CCN(CC(=O)Nc1ccccc1C(F)(F)F)C(=O)CCS(=O)(=O)c1ccc(Cl)cc1
33. COc1ccc(S(=O)(=O)N(CC(=O)NCC2CCCO2)c2ccc(F)cc2)cc1OC (stereo not given)
50. O=C(CNc1ccc(C(F)(F)F)cc1)Nc1cccc(S(=O)(=O)N2CCCC2)c1

entry no.,8,11,12,15,22,31,33,50
RanGTP-Impb inh,0.3,4.8,-0.8,3.5,-0.8,-2.1,2.6,nt
Bfl-1 A1 inh,0.4,-0.2,0.0,1.4,-0.2,-0.6,-0.1,-0.6
Calb FLC,-5,-23,-1,13,8,-5,11,nt
UCH37 inh,2.8,4.1,0.5,1.3,1.9,-0.3,2.8,0.2
Beta apoptosis,-2,-2,-3,1,-3,-5,-2,-2
B2AR ag,2,-3,-2,1,10,-3,-4,9
T cruzi inh,-1,1,17,-11,-6,-4,-9,nt
LANA-H2B inh,4.4,0.7,2.4,-1.0,5.1,-2.2,-8.7,0.0

Source: PubChem (several laboratories)
